Source: PubChem BioAssay
motility – Vibrio cholerae motility inhibitors, OD read-out (AID 588778); Vibrio cholerae motility, OD read-out; higher % means a stronger effect; test concentration not given here; primary cut-off and reference of the scale not given here; strong numbers were not always called active; one-dose inhibition, %; IC50 in µg/mL for titrated hits; 10,000 tested, under 10 active; in the data active means confirmed in a dose series
motility viability – recorded beside motility, whose call it bears; inhibition, %; measured here: bacterial viability at 10 ug/mL;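 higher means fewer living bacteria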
* marks the source's active call; other numbers are inactive results.

What do the screens show for `O=C(C1CCCN(C2CCN(Cc3ccccc3)CC2)C1)N1CCN(c2ccccc2)CC1` (stereo unspecified)?
motility: -3%; motility viability: -1

How did COC(=O)CC1CC(=O)C2C(=O)c3c(OC)ccc(Br)c3C2C1 (stereo unspecified) do in these assays?
motility: -2%; motility viability: -1

How did O=C(Nc1nnc(SCC(=O)N2CCc3ccccc32)s1)c1ccccc1F do in these assays?
motility: 0%; motility viability: -4

What do the screens show for `Clc1ccc(OCCOCCn2ccnc2)c(Br)c1`?
motility: 23%; motility viability: 6

How did COc1ccccc1CC(=O)Nc1cccc2c1CCCC2 do in these assays?
motility: 5%; motility viability: -3

Results for CCNc1nc(Nc2nc(C)c(C(=O)OCC)s2)nc(NC(C)C)n1 ?
motility: 10%; motility viability: 6

How did S=C(NCc1ccco1)Nc1ccn(C23CC4CC(CC(C4)C2)C3)n1 do in these assays?
motility: 1%; motility viability: -5

How did O=[N+]([O-])c1ccccc1S(=O)(=O)NCCSCc1c(F)cccc1Cl do in these assays?
motility: 23%; motility viability: 5

How did O=C(COc1ccc(S(=O)(=O)N2CCCc3ccccc32)cc1)NCc1ccccn1 do in these assays?
motility: 3%; motility viability: 0

How did O=C(Nc1nccs1)c1ccccc1I do in these assays?
motility: -18%; motility viability: -4

Results for Cc1cc(NC(=O)C2C3C=CC(C3)C2C(=O)O)ccc1NC(=O)c1cccs1 (stereo unspecified) ?
motility: -1%; motility viability: -5

Results for Nc1ccc(C2CCCCC2)cc1 ?
motility: 21%; motility viability: 6

How did CCOC(=O)c1cc2cc([N+](=O)[O-])ccc2s1 do in these assays?
motility: -10%; motility viability: -5

How did O=C(NC(=S)NC12CC3CC(CC(C3)C1)C2)c1ccco1 do in these assays?
motility: -5%; motility viability: 26

What do the screens show for `CC(C)(CSc1ncccn1)NS(=O)(=O)c1ccccc1`?
motility: -4%; motility viability: -7

Results for CSc1ccccc1NC(=O)Nc1ccccc1C(F)(F)F ?
motility: 6%; motility viability: -4

How did COc1ccc(NC(=O)CSc2nnc(NC(=O)c3ccccc3Cl)s2)c([N+](=O)[O-])c1 do in these assays?
motility: 5%; motility viability: -9

What do the screens show for `CS(=O)(=O)N(Cc1ccco1)CC(O)Cn1cc(C=O)c2ccccc21` (stereo unspecified)?
motility: -4%; motility viability: 2

Results for C=CCn1c(SCCC(N)=O)nnc1-c1ccc(Cl)cc1 ?
motility: 2%; motility viability: -1

How did CC(=O)c1ccc(NC(=S)Nc2ccccc2I)cc1 do in these assays?
motility: -6%; motility viability: -9

How did Cc1cc(C)c(OCC(=O)Nc2nnn(C)n2)c(Br)c1 do in these assays?
motility: -16%; motility viability: -5

What do the screens show for `S=c1[nH]nc(CSCc2ccccc2Cl)n1-c1ccccc1`?
motility: 6%; motility viability: 1

What do the screens show for `CCN(CC)CC(=O)Nc1c(C)cc(C(C)(C)c2cc(C)c(NC(=O)CN(CC)CC)c(C)c2)cc1C`?
motility: -3%; motility viability: -4

How did CC(Oc1ccccc1)C(=O)Nc1scc(-c2ccc(Cl)cc2Cl)c1C(N)=O (stereo unspecified) do in these assays?
motility: 2%; motility viability: -9

What do the screens show for `CCOC(=O)c1c(C)nc2ncccn12`?
motility: -36%; motility viability: -13

Results for COc1nc(-c2cccs2)cc(-c2cccc([N+](=O)[O-])c2)c1C#N ?
motility: -3%; motility viability: 2

Results for CCc1nnc(N2C(=O)C3C4C=CC(C4)C3C2=O)s1 (stereo unspecified) ?
motility: -4%; motility viability: -4

How did CC1(C)CC2CC(C)(CN2C(=O)c2cc(-c3ccccc3)on2)C1 (stereo unspecified) do in these assays?
motility: 9%; motility viability: 2

What do the screens show for `CC(Sc1nc(-c2ccc(F)cc2)cs1)C(=O)NC(c1ccccc1)c1ccccc1` (stereo unspecified)?
motility: -31%; motility viability: -13

How did Nc1ccc(-c2nnc(-c3ccco3)o2)cc1 do in these assays?
motility: 18%; motility viability: 1

Retrieved by compound from the list above, 6 records:
What do the screens show for `CCN(CC)CC(=O)Nc1c(C)cc(C(C)(C)c2cc(C)c(NC(=O)CN(CC)CC)c(C)c2)cc1C`?
motility: -3%; motility viability: -4

What do the screens show for `S=c1[nH]nc(CSCc2ccccc2Cl)n1-c1ccccc1`?
motility: 6%; motility viability: 1

How did CC(Oc1ccccc1)C(=O)Nc1scc(-c2ccc(Cl)cc2Cl)c1C(N)=O (stereo unspecified) do in these assays?
motility: 2%; motility viability: -9

Results for C=CCn1c(SCCC(N)=O)nnc1-c1ccc(Cl)cc1 ?
motility: 2%; motility viability: -1

How did CC(=O)c1ccc(NC(=S)Nc2ccccc2I)cc1 do in these assays?
motility: -6%; motility viability: -9

How did CC1(C)CC2CC(C)(CN2C(=O)c2cc(-c3ccccc3)on2)C1 (stereo unspecified) do in these assays?
motility: 9%; motility viability: 2

Five structures already listed, sorted by molar mass, smallest number first.
What do the screens show for `CCOC(=O)c1c(C)nc2ncccn12`?
motility: -36%; motility viability: -13

How did CC1(C)CC2CC(C)(CN2C(=O)c2cc(-c3ccccc3)on2)C1 (stereo unspecified) do in these assays?
motility: 9%; motility viability: 2

How did Cc1cc(C)c(OCC(=O)Nc2nnn(C)n2)c(Br)c1 do in these assays?
motility: -16%; motility viability: -5

What do the screens show for `S=c1[nH]nc(CSCc2ccccc2Cl)n1-c1ccccc1`?
motility: 6%; motility viability: 1

How did CC(Oc1ccccc1)C(=O)Nc1scc(-c2ccc(Cl)cc2Cl)c1C(N)=O (stereo unspecified) do in these assays?
motility: 2%; motility viability: -9

The list continues:
Results for CC1=Nc2ccccc2N=C(NC(=O)CSc2nnc(C)s2)C1c1ccccc1 (stereo unspecified) ?
motility: 6%; motility viability: -3

Results for CCc1ccc(-c2nc3ccc(Br)cc3c(C(=O)O)c2C)s1 ?
motility: -2%; motility viability: -3

What do the screens show for `CCC(Sc1nc(C)cc(=O)[nH]1)C(=O)Nc1ccccc1OC` (stereo unspecified)?
motility: -3%; motility viability: -1

How did CCC(Oc1ccccc1)C(=O)NCCc1ccc(S(N)(=O)=O)cc1 (stereo unspecified) do in these assays?
motility: 9%; motility viability: -4

What do the screens show for `CCOC(=O)C1=C(O)/C(=C/c2ccc(Br)cc2)SC1=Nc1ccc([N+](=O)[O-])cc1`?
motility: 6%; motility viability: 4

Results for CN(C)S(=O)(=O)N1CCc2ccccc21 ?
motility: -1%; motility viability: -5

Results for CCOc1ccc(S(=O)(=O)NCCSCc2ccc(C)cc2)cc1 ?
motility: 24%; motility viability: 10

How did COc1ccccc1N1CCN(C2CCN(Cc3cccnc3)CC2)CC1 do in these assays?
motility: 16%; motility viability: -2

Results for COCCNC(=S)N1CCN(C(c2ccccc2)c2ccccc2)CC1 ?
motility: -6%; motility viability: -7

What do the screens show for `CC(=O)N1c2cc(C)cc(C)c2C2OCCC2C1c1cccs1` (stereo unspecified)?
motility: 7%; motility viability: 1

Results for Cc1ccccc1OCc1nnc(SC(C)C(=O)Nc2nccs2)n1Cc1ccccc1 (stereo unspecified) ?
motility: -6%; motility viability: -8

What do the screens show for `CCCn1nnc(NC(=O)c2ccccc2[N+](=O)[O-])n1`?
motility: 0%; motility viability: -6

How did COc1cc([N+](=O)[O-])ccc1-n1c(C)cc(C=O)c1C do in these assays?
motility: -7%; motility viability: -9

How did Cc1cc(OC(=O)Nc2ccccc2)c(C(C)C)cc1I do in these assays?
motility: 9%; motility viability: 2

Results for O=C(Nc1ccc(-c2cc3ccccc3oc2=O)cc1)c1ncn[nH]1 ?
motility: -19%; motility viability: -3

How did Cc1ccc(NC(=O)C(=O)NCCC2=CCCCC2)c(C)c1 do in these assays?
motility: -9%; motility viability: -1

How did Cc1nc(-c2ccc(OC(=O)c3ccccc3)cc2)cs1 do in these assays?
motility: -2%; motility viability: 0

Results for O=c1[nH]c2ccccc2n1CCCSc1nnc2c(n1)[nH]c1ccccc12 ?
motility: -28%; motility viability: -7

How did Cc1ccc(C)c(S(=O)(=O)Nc2ccc(O)c(Sc3ncn[nH]3)c2)c1 do in these assays?
motility: -14%; motility viability: -5

Results for CCC(=O)c1ccc(OC(=O)N(C)C)cc1 ?
motility: 7%; motility viability: 1

What do the screens show for `S=C(NCC1CCCO1)Nc1cnn(Cc2ccc(Cl)cc2)c1` (stereo unspecified)?
motility: 12%; motility viability: 2

Results for COC(=O)c1ccc(NC(=O)C(C(F)(F)F)C(F)(F)F)cc1 ?
motility: 16%; motility viability: 2

What do the screens show for `C/C(=C\c1ccc(-c2ccc(Cl)c(C(=O)O)c2)o1)[N+](=O)[O-]`?
motility: 0%; motility viability: -3

What do the screens show for `Cc1cccn2cc(-c3ccc(NC(=O)c4ccco4)cc3)nc12`?
motility: -31%; motility viability: -15

What do the screens show for `O=C(CN(C(=O)c1ccc(Cl)cc1Cl)N1C(=O)CCCC1=O)c1ccc(F)cc1`?
motility: 3%; motility viability: 8

How did C/C=C/c1c(F)c(F)c(Oc2ccccc2NC(C)=O)c(F)c1F do in these assays?
motility: -4%; motility viability: -8

Results for CCOC(=O)c1c(C2COc3ccccc3O2)csc1NC(=O)c1ccco1 (stereo unspecified) ?
motility: 1%; motility viability: -4

How did Cc1cc(NC(=O)CCC2COc3ccccc3O2)no1 (stereo unspecified) do in these assays?
motility: 6%; motility viability: -1

What do the screens show for `NCCNCCSc1ccc(Cl)cc1`?
motility: 17%; motility viability: 23

What do the screens show for `CC(NC(=S)NNC(=O)Cn1ncc2ccccc2c1=O)c1ccccc1` (stereo unspecified)?
motility: -1%; motility viability: -1

What do the screens show for `COc1ccccc1C(=O)Oc1c(CN2CCOCC2)cc(Cl)c2cccnc12`?
motility: 186%; motility viability: 91

Results for CN(CCc1ccccn1)C(=O)c1cccc(F)c1 ?
motility: 29%; motility viability: 3

What do the screens show for `CSc1ccccc1NC(=O)CN(c1ccc(C)c(Cl)c1)S(C)(=O)=O`?
motility: 17%; motility viability: 30

How did CCn1cc(CNC(=O)COc2ccc(Cl)cc2Cl)cn1 do in these assays?
motility: 15%; motility viability: 2

How did Cc1ccc(S(=O)(=O)N(C)C)cc1NC(=O)C12CCC(C)(C(=O)C1)C2(C)C (stereo unspecified) do in these assays?
motility: -17%; motility viability: -6

Results for FC(F)(F)c1ccccc1-n1c(-c2cccnc2)n[nH]c1=S ?
motility: inactive; motility viability: 32

How did COc1ccc(CCn2c(N)c(Br)c(=O)[nH]c2=O)cc1OC do in these assays?
motility: -9%; motility viability: -4

What do the screens show for `CN1C(c2ccccc2)CC(O)(C#Cc2ccccc2)CC1c1ccccc1` (stereo unspecified)?
motility: 7%; motility viability: -5

How did N#CSc1ccc(NS(=O)(=O)c2ccccc2)cc1Cl do in these assays?
motility: 20%; motility viability: 6

What do the screens show for `COc1ccc(OCC(=O)Nc2cccc(N(C)S(C)(=O)=O)c2)cc1`?
motility: -5%; motility viability: 0

What do the screens show for `O=C(NCC1CCCO1)C1C2C3CCC(C3)C12` (stereo unspecified)?
motility: 8%; motility viability: 1

What do the screens show for `Cn1ccc(NC(=S)Nc2ccc(Br)cc2Cl)n1`?
motility: -1%; motility viability: -4

How did CC1C(C(=O)O)CC(C(=O)O)C1(C)C (stereo unspecified) do in these assays?
motility: 16%; motility viability: 3

How did Cn1nnnc1NCc1cc(Br)ccc1OCc1ccccc1F do in these assays?
motility: 5%; motility viability: 2

How did COc1ccc(CCC(=O)C2(O)CCCCC2)cc1 do in these assays?
motility: 9%; motility viability: -6

How did COc1ccc(-c2ccc(C(=S)N3CCN(c4ccc(C)cc4)CC3)o2)cc1 do in these assays?
motility: 8%; motility viability: -1

How did CCN1C(=O)C2(C(C#N)=C(N)SC(N)=C2C#N)c2ccccc21 do in these assays?
motility: 3%; motility viability: 2

Results for CCOC(=O)NC(=O)CSc1nnnn1-c1ccccc1 ?
motility: 5%; motility viability: 14

Results for Cc1nn(Cc2ccccc2)c(C)c1CCC(=O)O ?
motility: 4%; motility viability: -4

What do the screens show for `CC(=O)c1cccc(NC(=O)NCc2cnn(C)c2)c1`?
motility: -4%; motility viability: 1

Results for CCOc1ccc(N(CCCCO)C(=O)NC(=O)c2ccc(C)c(Br)c2)cc1 ?
motility: 2%; motility viability: -4

What do the screens show for `CCOC(=O)c1c(C)oc2ccc(OC(C(=O)OCC)c3ccccc3)cc12` (stereo unspecified)?
motility: -24%; motility viability: -10

Results for COc1ccc(CNCCC2=CCCCC2)cc1 ?
motility: 14%; motility viability: 0

What do the screens show for `O=C(CCc1ccccc1)Nc1ccc2ccccc2n1`?
motility: -4%; motility viability: -5

How did O=C(N1CCCCCC1)N1CCN(S(=O)(=O)N2CCOCC2)CC1 do in these assays?
motility: -4%; motility viability: -2

Results for COC(=O)c1ccc2c3c(cccc13)CC2 ?
motility: -1%; motility viability: -2

Results for COc1cc(NC(=O)c2ccc(Br)o2)c(C(=O)O)cc1OC ?
motility: 4%; motility viability: -3

How did O=C(O)c1ccc(CSc2nnnn2C2CCCCC2)cc1 do in these assays?
motility: 9%; motility viability: 4

An excerpt. The share of hits here may be higher or lower than overall.
